# KCNQ2 inh = KCNQ2 channel blockers in CHO-K1 cells – cell-based, FluxOR thallium flux, B-score, primary screen (AID 2156); 20 min; active compounds read low; only compounds with negative scores are shown here; some inactives read as strong as hits; O88943; B-score at 10 µM; 1.1% of 310,000 active;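 active = fluorescence ratio B-score at most minus 3 library SDs, with starting brightness B-score within 2 library SDs, cut at about -5.5 in these data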
# Target sequence (O88943 whole entry, looked up): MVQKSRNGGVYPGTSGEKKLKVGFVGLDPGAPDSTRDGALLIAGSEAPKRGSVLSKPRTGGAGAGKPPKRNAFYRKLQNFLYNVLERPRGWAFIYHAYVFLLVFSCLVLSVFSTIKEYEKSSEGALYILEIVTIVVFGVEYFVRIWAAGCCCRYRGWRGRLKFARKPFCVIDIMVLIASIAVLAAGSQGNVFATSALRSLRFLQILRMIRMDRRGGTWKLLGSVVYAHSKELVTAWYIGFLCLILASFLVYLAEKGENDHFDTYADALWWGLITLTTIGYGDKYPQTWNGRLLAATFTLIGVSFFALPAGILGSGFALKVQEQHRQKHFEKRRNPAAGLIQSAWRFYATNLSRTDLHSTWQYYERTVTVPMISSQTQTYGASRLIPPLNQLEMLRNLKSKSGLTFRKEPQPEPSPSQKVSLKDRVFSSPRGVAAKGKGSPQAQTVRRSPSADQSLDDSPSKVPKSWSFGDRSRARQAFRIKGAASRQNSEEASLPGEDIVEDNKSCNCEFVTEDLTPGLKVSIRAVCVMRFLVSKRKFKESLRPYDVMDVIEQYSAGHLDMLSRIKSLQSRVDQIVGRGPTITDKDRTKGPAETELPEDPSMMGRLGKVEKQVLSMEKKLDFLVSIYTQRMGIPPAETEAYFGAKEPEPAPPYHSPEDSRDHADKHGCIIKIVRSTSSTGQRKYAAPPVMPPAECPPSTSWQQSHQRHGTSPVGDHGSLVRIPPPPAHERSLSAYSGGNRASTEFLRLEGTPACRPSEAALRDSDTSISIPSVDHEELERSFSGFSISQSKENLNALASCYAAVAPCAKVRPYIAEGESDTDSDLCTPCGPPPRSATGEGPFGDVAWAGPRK
# KCNQ2 inh baseline = second read-out of KCNQ2 inh, no call of its own (marks repeat the call); B-score; measured here: initial fluorescence intensity artifact check;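 brightness before thallium and not channel activity; 0 = typical well and far values either way flag optical interference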
# * marks the source's active call; other numbers are inactive results; i = inactive. An excerpt (hit frequency here may not be typical).
# Every second line gives: KCNQ2 inh baseline	KCNQ2 inh
O=C(COC(=O)CNC(=O)C1CCCCC1)Nc1ccc2c(c1)OCCO2
 : -0.21	i
Cc1c(C(=O)N(Cc2ccc(N(C)C)cc2)C2CCS(=O)(=O)C2)oc2ccccc12 (stereo not drawn)
 : 1.1	i
c1ccc(-c2nnc(OCCN3CCOCC3)c3ccccc23)cc1
 : 0.13	i
CCOc1ccc(/C=N\NC(=O)CC(=O)NCCc2ccccc2)cc1
 : 1.7	i
CCOc1ccccc1OCCNC1CCCC1
 : -1.3	i
O=C(C[C@H]1C(=O)N(C2CCCCC2)C[C@@H]1Cc1ccccc1)Nc1ccccc1
 : -0.27	i
O=[N+]([O-])c1cccc(C2(O)COc3ccccc3O2)c1 (stereo not drawn)
 : 0.62	i
Cc1cccc(Cn2c(CN3CCN(Cc4ccccc4)CC3)nc3c2c(=O)[nH]c(=O)n3C)c1
 : 1.3	i
CCOC(=O)c1c(NC(=O)CSc2cccc[n+]2[O-])sc(C(=O)Nc2ccccc2)c1C
 : -0.91	i
CCN(CC)CCCNC(=S)N(Cc1cccs1)Cc1cc2cc3c(cc2[nH]c1=O)OCCO3
 : -0.75	i
CCOC(=O)c1ccc(-n2ccnc2)c(NC(=O)c2cccc(Br)c2)c1
 : -0.69	i
CCOCCCNC(=O)c1ccc(NC(=O)C2CCCO2)cc1 (stereo not drawn)
 : 0.61	i
Cc1ccccc1-c1nnc(-c2ccccc2C)o1
 : 0.52	i
Cc1ccc(S(=O)(=O)N2CCN(C(=O)c3ccc(N4CCCCC4)c([N+](=O)[O-])c3)CC2)cc1
 : 0.06	i
COC(=O)c1ccc(Nc2cc(C)nc3ncnn23)cc1
 : -0.29	i
CCOc1ccc(OCC)c(S(=O)(=O)N2CCCCC2C)c1 (stereo not drawn)
 : -1.1	i
O=C(Oc1ccc2cc(Br)ccc2c1)N1CCCCCC1
 : -0.3	i
COCCCNC(=O)C1CCC(CNS(=O)(=O)c2ccc(C)cc2)CC1 (stereo not drawn)
 : -1.8	i
O=C(NCCN1CCN(c2ccc([N+](=O)[O-])cc2)CC1)NCc1ccccc1
 : -2.4	i
O=C(N/N=C/c1ccccn1)c1cccs1
 : 0.22	i

# 2 entries from above, reformatted:
KCNQ2 inh baseline	KCNQ2 inh	Structure
-0.21	i	O=C(COC(=O)CNC(=O)C1CCCCC1)Nc1ccc2c(c1)OCCO2
1.1	i	Cc1c(C(=O)N(Cc2ccc(N(C)C)cc2)C2CCS(=O)(=O)C2)oc2ccccc12 (stereo not drawn)

# Next section
# Every second line gives: KCNQ2 inh baseline	KCNQ2 inh
C/C=C/C(=O)Nc1nnc(C(C)C)s1
 : 1.7	i
O=C(N/N=C/c1cc([N+](=O)[O-])ccc1O)C1CC1
 : 0.95	i
Cn1c(CNC(=O)C2CCCCC2)cc2cc(Cl)ccc21
 : -2.2	i
O=C(CSC1=NCCS1)Nc1cccc(F)c1
 : -0.01	i
Cc1ccc(CNC(=O)[C@H](C)NC(=O)C2CCN(C(=O)[C@@H](N)CC(C)C)CC2)cc1
 : 0.15	i
Cc1nc2ccc(Cl)cc2c(-c2ccccc2Cl)c1CC(=O)O
 : -0.54	i
O=S(=O)(c1ccc(N2CC=C(c3ccccc3)CC2)nc1)N1CCCC1
 : -2.4	i
Cc1ccc(C(=O)OCC(=O)NNC(=O)c2ccccc2)c(O)c1
 : 1	i
COc1ccc(C(=O)N2CCCN(C)CC2)cc1S(=O)(=O)N1CCCc2ccccc21
 : -1.3	i
COc1cccc(-c2cc(C(=O)Nc3cc(C)nn3-c3ccccc3)no2)c1
 : -1.6	i
O=C(Cn1[nH]c(=O)c2ccccc2c1=O)Nc1cccc(S(=O)(=O)N2CCCCCC2)c1
 : -0.2	i
O=C(c1cnc(N2CCN(c3ncccn3)CC2)c2ccccc12)N1CCN(c2ccccn2)CC1
 : 1.2	i
CO/N=C/CC(=O)c1ccc([N+](=O)[O-])c(CS(=O)(=O)c2ccc(Cl)cc2)c1
 : 0.05	i
COc1ccc(CN2CCC(=O)N(CCO)CC2)cc1OC
 : 1	i
Cn1c(Cn2c(=O)sc3ccccc32)nnc1SCC(=O)NCc1ccc2c(c1)OCO2
 : 0.21	i
CC(C)c1nc2cc(C(=O)NC(C)c3cnn(C)c3)ccc2o1 (stereo not drawn)
 : 1.6	i
C=CCNc1nnc(Cc2ccc(F)cc2)c(=O)[nH]1
 : -2.1	i
C=CCNC(=S)/N=c1/ccccn1C
 : -0.4	i
O=C(O)/C=C/C(=O)NNC(=O)c1cc(-c2ccccc2)n[nH]1
 : -1.3	i
COc1cccc(CN(C)C(=O)C(CCSC)NS(=O)(=O)c2ccc3c(c2)OCCO3)c1OC (stereo not drawn)
 : -0.41	i

# Further entries follow:
# Every second line gives: KCNQ2 inh baseline	KCNQ2 inh
CCN(Cc1cc(=O)[nH]c2ccccc12)C(=O)c1ccc(C)cc1
 : -2.2	i
CCOc1ccc(-n2c(=O)c3sccc3n(CC(=O)NCC3CCCO3)c2=O)cc1 (stereo not drawn)
 : 0.96	i
CC[C@@H]1CC=C[C@H]2[C@H]1C(=O)N(Cc1ccccc1)[C@H]2c1ccoc1
 : -2.4*	-6.2*
COc1ccccc1C(=O)NNC(=O)c1ccc(F)cc1
 : 0.57	i
NC(=O)CC(NC(=O)c1ccccc1)c1ccc(NCc2ccccn2)c([N+](=O)[O-])c1 (stereo not drawn)
 : -1.1	i
COc1cccc2sc3ccc(C#CC4(O)CCCCC4)cc3c(=O)c12
 : 0.08*	-6.7*
COc1ccc(NS(=O)(=O)c2cccc(C(=O)N/N=C/c3ccccn3)c2)cc1
 : 0.19	i
Cc1nc2scc(-c3cccs3)c2c(=O)n1CC(=O)O
 : -0.21	i
COc1ccc(C(C2C(=O)CC(C)(C)CC2=O)C2C(=O)CC(C)(C)CC2=O)cc1CO
 : -0.99	i
Cc1cc(NC(=S)Nc2cccnc2)ccc1Br
 : 0.82	i
c1ccc(N=Nc2cn[nH]c2-c2ccco2)cc1
 : -0.08	i
COc1ccc(OC)c(S(=O)(=O)Nc2ccc3c(c2)n(C)c(=O)n3C)c1
 : 0.7	i
CC(C)(C)CC(=O)NC(=S)NCCc1ccccc1
 : 0.09	i
CCOc1ccc(NC(=O)CSc2nnc(CCNC(=O)c3ccc(OC)cc3)n2C)cc1
 : 0.22	i
Cc1ccc(N2C(=O)C(CN3CCCCC3)C2c2ccccc2)cc1 (stereo not drawn)
 : 0.97	i
COc1ccc(OCC(=O)N2c3ccccc3CCc3ccccc32)cc1
 : -1.9	i
Cc1ccc(S(=O)(=O)N(C)C)cc1NC(=S)Nc1ccc2cn[nH]c2c1
 : 0.92	i
O=C(NCc1ccco1)c1ccccc1Nc1ccc(F)cc1
 : -0.01	i
Cc1ccc(C(=O)O)cc1NC(=S)NC(=O)c1ccc(COc2ccccc2)cc1
 : -0.67	i
O=C(Nc1ccc(S(=O)(=O)N2CCCC2)cc1)c1ccc2c(=O)n3c(nc2c1)CCCCC3
 : -1.6	i

# For reference, 5 of the compounds above.
# Every second line gives: KCNQ2 inh baseline	KCNQ2 inh
CCN(Cc1cc(=O)[nH]c2ccccc12)C(=O)c1ccc(C)cc1
 : -2.2	i
CCOc1ccc(-n2c(=O)c3sccc3n(CC(=O)NCC3CCCO3)c2=O)cc1 (stereo not drawn)
 : 0.96	i
CC[C@@H]1CC=C[C@H]2[C@H]1C(=O)N(Cc1ccccc1)[C@H]2c1ccoc1
 : -2.4*	-6.2*
COc1ccccc1C(=O)NNC(=O)c1ccc(F)cc1
 : 0.57	i
NC(=O)CC(NC(=O)c1ccccc1)c1ccc(NCc2ccccn2)c([N+](=O)[O-])c1 (stereo not drawn)
 : -1.1	i

# (continued)
# Every second line gives: KCNQ2 inh baseline	KCNQ2 inh
CCOc1cc(CNCc2ccc(C(=O)O)cc2)ccc1OC
 : 0.09	i
COc1ccc(CNC(=O)C(=O)NCC2OCCN2S(=O)(=O)c2ccc(C)cc2)cc1 (stereo not drawn)
 : 1.1	i
Nc1nnc(SCC(=O)NC2CCCCCCC2)s1
 : 1.6	i
COc1cc(NC(=O)c2ccc(-c3cccc([N+](=O)[O-])c3)o2)ccc1NC(=O)C(C)C
 : 1.1	i
COCCNC(=O)Nc1ccc(F)cc1
 : 0.1	i
O=C(COc1ccc(Br)cc1Cl)NC1CCN(Cc2ccccc2)CC1
 : -1.8	i
O=C(NCc1ccc(F)cc1)c1cc(S(=O)(=O)N2CCOCC2)ccc1F
 : -0.62	i
CC(C)(C)NC(=O)CN(Cc1cccs1)C(=O)C1COc2ccccc2O1 (stereo not drawn)
 : -0.25	i
Cn1c(=O)c2c(nc(CN3CCN(C(=O)c4ccco4)CC3)n2Cc2cccc(Cl)c2)n(C)c1=O
 : 1.4	i
Cc1ccc2[nH]c(=O)c(CN(CCN3CCOCC3)C(=O)Nc3ccccc3F)cc2c1
 : -1.8	i
Oc1ccc(NC(=S)Nc2ccc(F)cc2)cc1
 : 0.62	i
O=C(Nc1ccnn1C1CCN(C2CCOCC2)CC1)c1cccc(F)c1
 : 2	i
CS(=O)(=O)N1CCC(C(=O)NCCC2=CCCCC2)CC1
 : -0.19	i
CN1C(=O)c2cccc3c(Br)ccc(c23)C1=O
 : 1.1	i
CCCc1cc(-c2n[nH]c(C)c2-c2ccc(C(=O)OCC)o2)c(O)cc1O
 : -0.46	i
CCCS(=O)(=O)c1ccc(COC(=O)Cc2ccc([N+](=O)[O-])cc2)cc1
 : 1.5	i
O=C(O)c1ccc(/C=N/Nc2nc3ccccc3[nH]2)cc1
 : -2.3	i
CC(=O)C1=C(C)Nc2ncnn2C1c1ccccc1OCc1ccccc1 (stereo not drawn)
 : 0.14	i
COc1ccc2c(c1)CCCN2C(N)=O
 : 0.48	i
COc1ccc(CCC(=O)NC2=NCCS2)cc1OC
 : 1.1	i

# (further entries)
# Every second line gives: KCNQ2 inh baseline	KCNQ2 inh
Cc1ccc(C)c(N2CC(O)(c3cccs3)[N+]3=C2CCCC3)c1 (stereo not drawn)
 : -1.3	i
O=C(c1ccc(-n2cccn2)cc1)N1CCc2ccccc2C1
 : -1.6	i
Cc1ccc(S(=O)(=O)NC(C)(C)CSc2ccccn2)cc1
 : 1.5	i
Cc1ccn(C(C)CC(=O)Nc2ccc(-c3ccno3)cc2)n1 (stereo not drawn)
 : 1.4	i
Cc1cc(C(=O)N/N=C/c2cn[nH]c2-c2ccccc2)cs1
 : 2	i
c1ccc(-n2cnnc2SCc2cn3ccsc3n2)cc1
 : 0.01	i
CCCn1c(=O)c2ccccc2n2c(SCC(=O)N3CCc4ccccc4C3)nnc12
 : -1.1	i
Cc1c(N=C2Nc3cccc4cccc2c34)c(=O)n(-c2ccccc2)n1C
 : -0.93	i
Cc1cccc(OCCn2c(-c3ccco3)nc3ccccc32)c1
 : -0.82	i
C=C(C)CSc1ncc(-c2cccc(C(F)(F)F)c2)cn1
 : -2.2	i
O=C(CSc1nnc(-c2ccco2)n1CC1CCCO1)NC1CCCC1 (stereo not drawn)
 : -0.93	i
CCOC(=O)c1cnn(-c2ncnc3c2cnn3Cc2ccccc2)c1N
 : 1.2	i
O=C(CN(C1CCCCC1)S(=O)(=O)c1ccccc1)NCc1ccco1
 : -0.11	i
COc1ccc(CN(C)CC(=O)N2CCc3ccccc3C2)cc1
 : 0.48	i
Cc1cc(-c2n[nH]c(=S)n2/N=C/C(Br)=C/c2ccccc2)n[nH]1
 : -0.33	i
O=C(NC1CCCCC1)c1ccc(COCC(F)(F)F)o1
 : -0.42	i
CCN1CCN(Cc2ccc(NC(=O)Nc3ccccc3OC)cc2)CC1
 : -0.53	i
O=C(CNc1ccc2ccccc2c1)N/N=C/c1cc2ccccc2nc1Cl
 : -0.47	i
COc1ccc(/C(C)=N/N=C2/NC(=O)CC(C(=O)O)S2)cc1F (stereo not drawn)
 : -0.2	i
Cn1nc(-c2ccccc2)c(C(=O)NCC(=O)O)c1Cl
 : -0.27	i

# Remaining list, next part
# Every second line gives: KCNQ2 inh baseline	KCNQ2 inh
CCN(CC)CCn1c(SCC(=O)Nc2ccc(F)cc2)nc2c(sc3ccccc32)c1=O
 : -0.39	i
Cc1cc(C(=O)NCC(=O)OCC(=O)N(C(C)C)C(C)C)ccc1[N+](=O)[O-]
 : 0.11	i
CCCCCC(=O)NC(=S)Nc1ccc(Cl)cn1
 : -0.17	i
O=C(COC(=O)c1ccc(Br)cc1)NCCc1ccccc1
 : 1.3	i
COc1cccc(C(=O)N2CCN(Cc3cccc(F)c3)CC2)c1
 : 2.3	i
S=c1[nH]nc(-c2ccccn2)n1/N=C/c1c(Cl)cccc1Cl
 : -0.79	i
Nc1nnn(CC(=O)N/N=C/c2ccc(Cl)cc2Cl)n1
 : 0.15	i
O=C(COC(=O)CCOc1ccccc1)Nc1ncc(Cl)cc1Cl
 : 0.03	i
COc1ccc(CNC(=O)C2CCCN(c3nc4ccccc4o3)C2)c(OC)c1 (stereo not drawn)
 : 0.3	i
Cc1ccc(N2C(=O)C(NC(=O)c3c(F)cccc3F)(C(F)(F)F)C3=C2CC(C)(C)CC3=O)cc1 (stereo not drawn)
 : -1.4	i
O=C(Nc1ccc(S(=O)(=O)N2CCCCCC2)cc1)c1ccco1
 : 0.19	i
COc1ccccc1C(=O)NC(=O)COC(=O)c1ccc(NC(=O)CC#N)cc1
 : -0.47	i
CCCOc1nc2c(c(=O)n(C)c(=O)n2C)n1Cc1cccc2ccccc12
 : 2.5	i
CCCc1cc(=O)[nH]c(SCCCCN2C(=O)c3ccccc3C2=O)n1
 : 0.44	i
CCN(CC)S(=O)(=O)c1cccc(C(=O)OCC(=O)Nc2ccc3c(c2)c2ccccc2n3CC)c1
 : 0.22	i
Cc1ccc(S(=O)(=O)NCC(=O)NC2CCCC2)cc1
 : 0.3	i
Cc1noc(NS(=O)(=O)c2ccc(N/C=C\C(=O)c3ccc4c(c3)OCO4)cc2)c1C
 : -0.22	i
Cc1ccc(NC(=O)Nc2ncnc3nc[nH]c23)cc1
 : -1	i
CC1CCCC(C)N1CCCNC(=O)c1csc2c1CCCCC2 (stereo not drawn)
 : -0.9	i
COC(=O)C1=C(C)N(CC2CC2)C(=NCc2cccc(Cl)c2)N[C@H]1c1ccccc1
 : 0.04	i
CCC1(C)Cc2[nH]c(=O)c(C#N)cc2CO1 (stereo not drawn)
 : -0.29	i

# Assay outcomes as filed in PubChem BioAssay.
